AID504770: growth inhibition of E. coli YBA685, primary screen, V. cholerae RctB inhibitors. hit rate 0.27% among 130,000. z-score (test concentration not listed). E. coli YBA685 rctB-dependent plasmid, OD600 growth, 3 h; hits give low values. AID 504770, 2011;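 active means z-score under -2 on both plates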;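 further: wells of about 30 µL received 100 nL stock; score is relative to mean and SD of the test wells; the first replicate is given; strong numbers were not always called active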
CapD inh: Bacillus anthracis CapD inhibitors, primary screen, biochemical, fluorescence intensity. CapD gamma-glutamyltranspeptidase (Bacillus anthracis Ames Ancestor). purified CapD enzyme, fluorescence intensity read-out; hits give low values; some hits fall short of the stated cut. z-score (test concentration not listed). hit rate 0.23% among 140,000. AID 492967, 2010;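 active means z-score under -4 in either of two replicates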;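 further: stock transfer was 100 nL into about 40 µL; score is relative to mean and spread of the plate; one replicate is shown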
Active calls of the source: *; x = not tested or not shown; & = joins results of further samples.

No.	Structure	AID504770	CapD inh
1	CC(C)(C)c1ccc(C2Nc3cccc4cccc(c34)N2)cc1	x	5.51
2	N#CCSc1nc(N)c(C#N)c(-c2cccs2)c1C#N	-0.25	-0.395
3	Cn1c2c(c(=O)[nH]c1=O)C(c1ccc(OCc3ccccc3)cc1)C1=C(N2)c2ccccc2C1=O (stereo not given)	x	0.09
4	CC(C)NC(=O)C1c2ccccc2C(=O)N2CCc3ccccc3C12 (stereo not given)	1.55	-0.455
5	Nc1c(C(=O)CSc2nnc(-c3ccc4c(c3)OCO4)o2)c(=O)[nH]c(=O)n1Cc1ccccc1	-0.65	x
6	COc1ccc(C2CC(c3ccc(C)cc3)=NN2C(=O)CCCC(=O)O)cc1OC (stereo not given)	x	0.295
7	O=C(Nc1ccc(F)c(Cl)c1)c1cccnc1Sc1cccs1	-0.05	-0.17
8	O=S(=O)(c1cccs1)N1CCCN(S(=O)(=O)c2cccs2)CC1	1.1	x
9	COc1ccc([C@@H]2[C@@H](C(=O)c3ccccc3)N3c4ccccc4C=C[C@@H]3C2(C#N)C#N)cc1	x	0.115
10	O=C(CN1CCCN(Cc2ccc(F)cc2Cl)C1=O)NCc1cccnc1	-0.3	-0.245
11	COc1ccccc1N1CCN(C(=S)NC(C)(C)C)CC1	-0.5	0.67
12	CCC1=CC(c2c(O)c3ccccc3n(C)c2=O)=NC(C)CN1 (stereo not given)	1.7	1.52
13	CCOc1ccc2nc(NC(=O)C(C)C)sc2c1	-1.3&-0.6	-0.37&5.64
14	COc1cc(/C=C2/C(=O)NC(=O)N(c3ccccc3)C2=O)ccc1OCC(=O)O	x	0.31
15	N#CCSc1nc2ccccc2c(=O)n1CCn1c(SCC#N)nc2ccccc2c1=O	0	-1.15
16	CN(C(=O)/C=C/c1ccccc1)C1CCS(=O)(=O)C1 (stereo not given)	2.4	-0.865
17	Cc1ccc2c(c1)/C(=N/O)CC(O)(C(F)(F)F)O2 (stereo not given)	-0.6	1.11
18	Cc1ccc(CNC(=O)COc2ccc3c(c2)C(=O)CC2(CCCCC2)O3)cc1	0.5	-0.49
19	Cc1oc(-c2cccc(Cl)c2)nc1Cn1ncn2c(cc3ccccc32)c1=O	-0.35	6.3
20	O=C(N/C(=C/c1ccc(Cl)cc1)C(=O)N1CCOCC1)c1ccccc1	-0.3	0.26
21	CCc1ccc2[nH]c3sc(C)nc3c2c1	-0.3	-0.21
22	O=C1/C(=C/c2ccc(-c3ccc([N+](=O)[O-])cc3)o2)C=C(c2ccccc2)N1c1ccc(Cl)cc1	x	-0.425
23	CC(C)OC(=O)CSc1nc2ccccc2s1	-0.7	1.56
24	N#Cc1cccc(COC(=O)c2ccccc2-n2cnnn2)c1	0.05	x

Given with each value named: four of the compounds above
3: Cn1c2c(c(=O)[nH]c1=O)C(c1ccc(OCc3ccccc3)cc1)C1=C(N2)c2ccccc2C1=O (stereo not given)
- AID504770: x
- CapD inh: 0.09
15: N#CCSc1nc2ccccc2c(=O)n1CCn1c(SCC#N)nc2ccccc2c1=O
- AID504770: 0
- CapD inh: -1.15
4: CC(C)NC(=O)C1c2ccccc2C(=O)N2CCc3ccccc3C12 (stereo not given)
- AID504770: 1.55
- CapD inh: -0.455
2: N#CCSc1nc(N)c(C#N)c(-c2cccs2)c1C#N
- AID504770: -0.25
- CapD inh: -0.395

Continued:
No.	Structure	AID504770	CapD inh
25	CN1C(=O)/C(=C\c2c(O)c3ccccc3n(C)c2=O)C(=O)c2ccccc21	0.2	1.44
26	Cc1cccc(N(CCOC(=O)Cn2cnc3ccccc3c2=O)C2=NS(=O)(=O)c3ccccc32)c1	x	-0.145
27	COc1ccc2cc(C#N)c(N3CCN(Cc4nnnn4CCC(C)C)CC3)nc2c1	0.25	x
28	CC(C)(C)c1ccc(-c2nnc(-c3ccccc3N)o2)cc1	0.85	31.1
29	COC(=O)c1ccc(CO/N=C(\C)c2ccc(Cl)cc2Cl)o1	0	-0.09
30	CCC(=O)Oc1ccc2cc(-c3nc4ccccc4n3C)c(=O)oc2c1	-0.2	4.26
31	Cc1ccc(-n2c(=O)c3c(c4cc(C)ccc4n3C)n(CC(N)=O)c2=O)cc1	0.8	84.9
32	N/C(=N\S(=O)(=O)Cc1ccccc1)Nc1nc2ccccc2o1	0.45	x
33	Cc1ccc2oc(-c3ccccc3)nc2c1	1.3	4.19
34	Cc1ccc(OC(=O)c2ccc(Cl)cc2)c(Br)c1	x	0.62
35	CC(=O)c1cccc(N2C(=O)C3C(c4ccccc4)C=CC(c4ccccc4)C3C2=O)c1 (stereo not given)	x	0.435
36	O=C(Oc1cccc(NC2=NS(=O)(=O)c3ccccc32)c1)c1ccc(Br)cc1	x	4.69
37	CCOC(=O)CSC1=Nc2ccccc2C2=NC(CC(=O)N3CCN(c4ccccc4)CC3)C(=O)N12 (stereo not given)	2.35	2.22
38	COc1ccc(S(=O)(=O)NCc2ccc(C(=O)NCCN3CCCCCC3)cc2)cc1	-1	0.075
39	CC(C)NC(=O)c1cc2cc3ccc(Cl)cc3nc2o1	-0.25	-0.44
40	CC(=O)NNc1ncnc2ccccc12	0.85	x
41	CN1CCN(C(=O)/C(=C/c2cccs2)NC(=O)c2cccs2)CC1	-0.6	x
42	O=C(N/N=C/c1ccc([N+](=O)[O-])cc1)C(CC1CCCCC1)n1cccc1 (stereo not given)	x	-1.07
43	Cc1ccc(N2C(=O)C3C4C=CC(CNC(=S)Nc5ccc(Br)cc5)(O4)C3C2=O)cc1 (stereo not given)	-0.8	0.32
44	COc1cccc(CNC(=O)c2ccc(CS(=O)Cc3ccc(C)cc3)o2)c1 (stereo not given)	-0.3	-0.835
45	NC(=O)COc1cccc(/C=C2/CC/C(=C\c3cccc(OCC(N)=O)c3)C2=O)c1	-0.05	0.02
46	O=C(COC(=O)Cc1cccc2ccccc12)NCc1ccc(F)cc1	1.4	-0.335
47	CC(=O)N/C(=N/c1nc(C)cc(C)n1)Nc1cc(C)cc(C)c1	-0.4	-0.01
48	N#CCCNCc1cccnc1	-0.35	x
49	CCCCCCCCCCOCCOCCOC(=O)NNC(=O)CNS(=O)(=O)c1cccc2nsnc12	x	-0.54
50	O=C(Nc1cc(C(=O)N2CCOCC2)cc(C(=O)N2CCOCC2)c1)c1cc(F)c(F)cc1Cl	1.7	-0.31
51	CCOC(=O)N1CCN(C(=O)/C=C2\Sc3ccccc3NC2=O)CC1	0.3	-0.895
52	CC1=Nc2cc(C(=O)NC(C)c3ccccc3)ccc2Sc2ccccc21 (stereo not given)	0.05	0.505
53	Cc1nc(-c2nnc(SCC(=O)c3ccccc3)o2)cs1	-0.2	-0.06
54	COc1ccccc1NC(=O)Cc1noc(COC(=O)c2sc3ccccc3c2Cl)n1	1.6	x
55	O=C(NCCCN1CCOCC1)c1nnc(-c2ccc3c(c2)OCO3)o1	-0.8	-0.06
56	Nc1ncnc2c1ncn2CCOc1ccccc1	0.25	7.83
57	CCOc1ccc(S(=O)(=O)Nc2cc(C(F)(F)F)cc(C(F)(F)F)c2)c2cccnc12	x	0.76
58	Cc1ccc(Cn2c(CO)cnc2SCC(=O)Nc2nc(C)cs2)cc1	0.85	x
59	NC(=O)CSc1cn(CCNC(=O)c2ccccc2)c2ccccc12	-0.65	x
60	COc1ccc(OCCCC(=O)NNc2ccccc2)cc1	-0.2	x

Two entries from above, with one line to a screen.
(53) Cc1nc(-c2nnc(SCC(=O)c3ccccc3)o2)cs1
(54) COc1ccccc1NC(=O)Cc1noc(COC(=O)c2sc3ccccc3c2Cl)n1
entry no. | 53 | 54
AID504770 | -0.2 | 1.6
CapD inh | -0.06 | x

The listing continues.
No.	Structure	AID504770	CapD inh
61	O=C(c1cccc(Cl)c1)N1N=C(C(F)(F)F)CC1(O)c1ccc(Cl)cc1 (stereo not given)	x	-0.92
62	NC(=O)CSc1ncnc2c1nnn2Cc1ccc(F)cc1	0.05	-0.17
63	Nc1ncccc1Cl	-0.3	x
64	CC(C)(C)c1ccc(CN2CCN(C(=O)OCCc3c[nH]c4ccccc34)CC2)cc1	x	-1.17
65	COc1cc2c(cc1OC)CN(CC(=O)Nc1ccccc1C(=O)Nc1ccc3c(c1)OCO3)CC2	1.75	x
66	CCN(CC)S(=O)(=O)c1ccc(N=Nc2c(O)c3ccccc3oc2=O)cc1	0.4	x
67	C/[N+]([O-])=C\c1ccc(F)cc1	1.4	x
68	CC(=O)Nc1nnc(SCC#N)s1	0.55	0.61
69	Cn1c(O)c(C=Nc2ccc(Cl)cc2)c(=O)[nH]c1=O	-0.55	-0.235
70	COc1ccc(-n2[nH]c(C)cc2=O)cc1	-1	-0.265
71	Cc1c2cn[nH]c(=O)c2c(C)n1Cc1cccs1	-0.1	5.66
72	Cc1cc(OCC(=O)Oc2ccc(-c3nnco3)cc2)ccc1C(C)C	0	x
73	NC(=O)NC1CCCCCCC1	1.45	0.08
74	CC1Cc2cc(C(=O)O)ccc2O1 (stereo not given)	-1.05	x
75	CCC1C(=O)N=C(SCC(=O)NCc2ccco2)NC1=O (stereo not given)	x	-0.83
76	CC(C)(C)NC(=O)CSc1nnc(NC2=NS(=O)(=O)c3ccccc32)s1	-0.55	-0.045
77	CCC(C(=O)O)c1ccc(N2Cc3ccccc3C2=O)cc1 (stereo not given)	-0.2	0.35
78	CCC(Sc1nc2ccccc2c2nc(C)nn12)C(=O)Nc1cc(OC)ccc1OC (stereo not given)	-0.2	0.41
79	Oc1ccc(-c2nc(-c3ccc4sc5ccccc5c4c3)c(-c3ccccc3)[nH]2)cc1	x	32.4
80	CN1CCc2c(OCc3ccccc3Cl)cccc2C1=O	0.35	0.825
81	CCOc1ccccc1C(=O)NCCSc1c[nH]c2ccccc12	-1.2	0.34
82	CCOC(=O)c1c[nH]n2c(=O)c3c(nc12)CCC3	-1.2	-0.46
83	O/N=C/c1cccc(Cl)c1	-0.05	0.5
84	COCc1cc(C)nc2sc3c(=O)n(-c4ccc(N=Nc5ccccc5)cc4)nnc3c12	x	-0.77

Screen by screen, quoted from above.
CapD inh, compounds 73–77: 0.08, x, -0.83, -0.045, 0.35
AID504770, compounds 73–77: 1.45, -1.05, x, -0.55, -0.2

Later entries:
No.	Structure	AID504770	CapD inh
85	C=CCn1c(SCC(=O)c2ccc(Cl)cc2)nc2cc(C(=O)N3CCC(C(N)=O)CC3)ccc2c1=O	x	0.545
86	CCCn1c(NC(C)=C(C#N)C#N)nc2ccccc21	-0.95	x
87	O=C(CSc1ncnc2ccccc12)OCc1ccccc1	0.15	-0.12
88	Cc1cc(C)c(C(N)=O)c(=S)[nH]1	1.05	x
89	NC(=Nc1ccccc1)SCC(=O)Nc1nonc1N	-0.85	0.065
90	CCC(C)C(=O)NCc1cc(OC)ccc1OC (stereo not given)	x	-0.335
91	O=c1c(-c2ccccc2)c(O)c2cccc3c2n1CC3	x	1.47
92	CCc1nc(S(C)(=O)=O)c(C#N)cc1C	-1.4	0.44
93	COc1ccccc1N(CC(N)=O)S(=O)(=O)c1ccccc1	-1.2	x
94	CS(=O)(=O)c1ccc(C(=O)Nc2ccc(N3CCCCC3)cc2)c(Cl)c1	-0.95	-0.565
95	COc1ccc(C2Nc3ccc4ncccc4c3C3=C2C(=O)CC(C)(C)C3)cc1 (stereo not given)	x	16.8
96	COc1ccccc1C(O)(C(=O)NNc1ccc(Br)cc1)c1ccccc1OC	x	-0.1
97	CSc1ncc(Cl)c(C(=O)Oc2ccccc2Cl)n1	0.25	-0.44
98	O=C(Nc1nccs1)c1cccn(Cc2ccc(Cl)c(Cl)c2)c1=O	x	-0.07
99	COC(=O)C1=C(Nc2ccc(OC(=O)Nc3cccc(Cl)c3)cc2)CSC1	-0.65	-0.28
100	Cc1cc(C)nc(N/N=C/C2=CCC3CC2C3(C)C)n1 (stereo not given)	-1.15	x
101	O=C(c1cccc(S(=O)(=O)N2CCCCC2)c1)N1CCN(C(=O)c2cccc(S(=O)(=O)N3CCCCC3)c2)CC1	x	-0.35
102	Cc1c(-c2cccc(NC(=O)c3ccccc3F)c2)nc2ncccn12	1.35	50.8
103	N#Cc1cc(C(=O)Cc2ccc(Cl)cc2)cn1Cc1c(F)cccc1Cl	x	0.095
104	O=C(NC1CC1)c1ccc(CS(=O)c2cccc(Cl)c2)o1 (stereo not given)	1.7	-0.25
105	O=C(Nc1cccc(Cl)c1)N1CCN(C2c3ccccc3-c3ccccc32)CC1	-0.4	-0.38
106	CCOc1ccc(Br)cc1NC1CCCCC1COC(=O)N1CCN(c2cc(OC)cc(OC)c2)CC1 (stereo not given)	x	-0.695
107	Cn1c(=Nc2ccccc2C(=O)O)ccc2ccccc21	0.3	1.39
108	O=C1NC(=O)N(c2ccc(F)cc2)C(=O)/C1=C/c1ccc(-c2ccccc2C(=O)O)o1	x	6.3
109	COc1ccccc1CNC(=O)c1ccc2c(c1)[nH]c(=S)n1c3ccccc3nc21	x	0.42
110	CCc1ccc(C2=CC(c3ccc(SC)cc3)n3nnnc3N2)cc1 (stereo not given)	-0.45	-0.26
111	Cc1cc2c(nn1)CCC/C2=N/O	x	0.35
112	O=C(NCCN1C(=O)C2C3C=CC(C3)C2C1=O)N1CCCCC1 (stereo not given)	1.25	1.44
113	CC(C)(C)c1ccc(-c2[nH]ncc2-c2nc3ccccc3o2)cc1	x	8.86
114	O=C1CCCN1C(=O)CSc1nnc2sc3ccccc3n12	1.15	x
115	CC1(C)CC(=O)C2=C(C1)OC1=C(C(=O)CC(C)(C)C1)C2c1ccc(OCc2ccc(F)cc2)cc1	x	-0.235
116	Cc1ccc(C)c(-c2nnc(NC(=O)c3ccccc3S(C)(=O)=O)o2)c1	-0.3	x
117	CCC(C)C(NS(=O)(=O)c1ccc(Cl)c(C(=O)O)c1)C(=O)O (stereo not given)	1.4	x
118	COc1ccccc1CCOC(=O)N1CCC(C(=O)c2ccc(F)cc2)CC1	x	0.135
